D2 potentiator: positive allosteric modulators of human D2 dopamine receptor; P14416; DiscoveRx D2 beta-arrestin cells, luminescence, 90 min; 100% = 57 uM dopamine signal; potentiation, % (test concentration not listed); 0.23% of 360,000 active; AID 624464; active = potentiation of 50% or more; inconclusive = 30% to 50%; inactive = 30% or less;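 further: compound concentration not given in the record; tested on top of an EC20 dose of dopamine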
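PathHunter D2 cells, attached overnight at 37 deg C, received compound in DMSO plus dopamine at EC20 (50 nM final) for 90 min at 37 deg C. Beta-arrestin recruitment was read as luminescence after 1 h with detection reagent at ambient temperature.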
CtBP-E1A blk: blocks the CtBP interaction with E1A | AlphaScreen GST-E1A/His-CtBP binding, 1536-well; stronger effect = lower value; control for the full effect not named in the record | activity change, % (test concentration not listed) | 0.49% of 340,000 active | AID 651724; in the data active means activity change below about -65%; inconclusive means about -30% to -65%; inactive means above about -30%; further: on the % scale 0 is the no-effect control and ±100 the full control effect; compound concentration not given in the record
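AlphaScreen with 125 nM GST-E1A and 125 nM His-CtBP (5X stocks) in Tris pH 8.0, 300 mM NaCl, BSA, Tween 20, TCEP. Compounds preincubated 2 h at 37 deg C, then glutathione donor/nickel acceptor beads added for 1 h at 37 deg C in dark.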
Six1-Eya2 blk: Six1/Eya2 interaction inhibition | activity change, % (concentration not given with the values) | AlphaScreen GST-Six1/His-Eya2 binding, biochemical; stronger effect = lower value; control for the full effect not named in the record | 0.56% of 360,000 active | AID 651725; in the data active = activity change below about -65%; inconclusive = about -30% to -65%; inactive = above about -30%; further: on the % scale 0 is the no-effect control and ±100 the full control effect
Target sequence (O00167 whole entry, looked up): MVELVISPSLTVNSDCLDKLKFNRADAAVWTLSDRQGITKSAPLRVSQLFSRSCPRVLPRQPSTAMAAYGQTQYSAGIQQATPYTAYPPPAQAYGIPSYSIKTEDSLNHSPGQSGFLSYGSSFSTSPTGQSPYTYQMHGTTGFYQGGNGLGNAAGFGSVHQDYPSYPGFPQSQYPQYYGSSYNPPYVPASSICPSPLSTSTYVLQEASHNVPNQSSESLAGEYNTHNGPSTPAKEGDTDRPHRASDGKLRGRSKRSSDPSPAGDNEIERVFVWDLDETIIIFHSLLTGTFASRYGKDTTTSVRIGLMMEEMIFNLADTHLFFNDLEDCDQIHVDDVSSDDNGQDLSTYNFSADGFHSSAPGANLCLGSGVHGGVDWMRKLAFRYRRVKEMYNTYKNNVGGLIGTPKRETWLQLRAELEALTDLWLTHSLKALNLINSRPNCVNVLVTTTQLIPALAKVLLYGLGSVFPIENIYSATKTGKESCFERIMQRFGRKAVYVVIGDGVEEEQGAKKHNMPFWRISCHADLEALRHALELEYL
Target sequence (Q15475 whole entry, looked up): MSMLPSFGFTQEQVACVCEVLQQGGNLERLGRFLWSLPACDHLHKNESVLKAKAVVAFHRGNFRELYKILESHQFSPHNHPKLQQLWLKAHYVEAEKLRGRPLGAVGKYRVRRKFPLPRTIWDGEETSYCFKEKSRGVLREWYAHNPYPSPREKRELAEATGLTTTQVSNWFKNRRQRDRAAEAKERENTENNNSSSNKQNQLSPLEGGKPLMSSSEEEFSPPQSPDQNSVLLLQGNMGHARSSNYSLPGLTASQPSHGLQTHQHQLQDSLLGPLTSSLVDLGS
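Compounds are tested against tagged Six1 and Eya2 proteins bridged by glutathione donor and nickel acceptor beads; after a one-hour incubation at 37 °C without light, AlphaScreen emission is recorded.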
D2 ag: agonists of human D2 dopamine receptor (beta-arrestin) | activation, % (concentration not given with the values) | 0.084% of 360,000 active | DiscoveRx PathHunter D2 beta-arrestin, luminescence, 90 min; 100% = 57 uM dopamine signal | P14416; in the data active = activation above about 40%; inconclusive = about 15% to 40%; inactive = below about 15%; further: compound concentration not given in the record; the text of the record calls up to 30% inactive
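Agonist mode: compounds alone added to overnight-plated D2 PathHunter cells for 90 min at 37 C, with 57 uM final dopamine (EC100) defining full response. Beta-arrestin recruitment detected by chemiluminescent reagent, read after 1 h at ambient temperature.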
gsp antag: antagonizes gsp, the McCune-Albright syndrome mutation. gsp-mutant cells, cAMP HTRF, 30 min; control for the full effect not named in the record. Potency, µM (doses to about 76.9 µM), inactives show top-dose activity change, negative = inhibition, usual class: inhibitors. 0.4% of 340,000 active. AID 624288; active = falling curve of any shape with a large fitted effect; inconclusive = falling curve, mostly with a smaller effect; inactive = flat or rising curve; cell line not stated here;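 further: intracellular cAMP measured with PDE inhibitor Ro 20-1724 present during compound exposure; potency means the concentration at half of the fitted maximal effect; on the % scale 0 is the no-effect control and ±100 the full control effect; nearly all actives have a fitted effect of over 65% in size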
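HTRF cAMP measurement after 30 min RT detection following 30 min, 37C compound treatment alongside […] (added as 300 uM solution) in G418-selected cells seeded at 2000/well and grown 16–24 h.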
gsp agonist: activates gsp, the McCune-Albright syndrome mutation. gsp mutant cells, cAMP HTRF, 30 min; control for the full effect not named in the record. Potency, µM (top dose mostly 76.9 µM), inactives show at the highest dose activation (cAMP increase), most hits filed as activators. 0.13% of 340,000 active; active = well fitted activation curve with a large enough effect; inconclusive = small, poorly fitted or top-dose-only effect, or another doubt; inactive = no such curve, though single readings can be large or run the other way; cell line not stated here;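 further: phosphodiesterase inhibitor Ro 20-1724 added with compounds to block cAMP breakdown; potency means the concentration at half of the fitted maximal effect; nearly all actives have a fitted effect of over 60% in size; about a fifth of the inactives were tested at one dose only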
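Cells stably selected in G418 were plated at 2000/well, grown 16-24 hr, then given compounds in DMSO with the PDE inhibitor […] (300 uM solution added) for 30 min at 37C; cAMP was read by HTRF.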
Numbers without * were called inactive; ? = inconclusive; . = no result given; & = joins results of further samples; [ ] = another dose, or the depositor's remark. Random draw from the library. About 1.4% of those tested had a hit in this group.

#	canonical_smiles	Six1-Eya2 blk	gsp agonist	CtBP-E1A blk
1	Cc1ccccc1C(=O)N/N=C/c1ccncc1	0	-1%	3
2	CCN(CC(=O)Nc1c(F)cccc1F)C(=O)CC1CCCCC1	4	?	6
3	CCCCOc1ccc(C(=O)NCCOc2cccc(OC)c2)cc1	8	-4%	.
4	CCn1c(CC(=O)Nc2ccc(OC)cc2)nnc1SCC(=O)N1CCOCC1	3	1%	-9
5	Cc1ccc(Nc2c(-c3ccc(C)o3)nc3cnccn23)cc1	3&5	?	2
6	Cc1cc(O)c(N)c(C)c1Cl	-6	-1%[15.4 µM]	.
7	Cc1cc(C)c(S(=O)(=O)NCC(CCC(=O)O)C(F)(F)F)c(C)c1 (centres undefined)	2	7%[15.4 µM]	5
8	CCn1c(SCC(=O)Nc2nc(-c3ccccc3)cs2)nnc1-c1ccccc1O	-17	21%	-8
9	Cc1cccc(OCC(=O)NC2CCCC2)c1	-15	-11%	6
10	Cc1nn(Cc2ccccc2)c(C)c1C(=O)NCCN1C(=O)S/C(=C\c2ccc(F)cc2)C1=O	-7	-3%[15.4 µM]	0

#	D2 ag	D2 potentiator	gsp antag
1	-2.5	-5	7%
2	-1.1	-1	13%
3	-1.5	-10	-7%
4	-0.1	4	-12%
5	6.3	12	-10%
6	?	?	-4%
7	-1.1	-18	-14%
8	1.5	9	?
9	-2.5	-1	-1%
10	1.4	7	7%

Continuation.
#	canonical_smiles	Six1-Eya2 blk	gsp agonist	CtBP-E1A blk
11	CC(C)N(C)Cc1nnnn1CC(=O)N(C)Cc1ccc(F)cc1	19	?	.
12	CC(=O)c1cccc(-c2ccnc3c2CC(C(=O)NCc2ccncc2)O3)c1 (centres undefined)	1	.	0
13	O=C(Nc1cccnc1Cl)C1CCCN(c2ncnc3c2nc2n3CCCCC2)C1 (centres undefined)	0	?	2
14	O=C(COc1ccc(Br)cc1)NCCCNC(=O)c1cccnc1	-6	-21%	-20
15	O=C1C2CC=C(Cl)CC2C(=O)N1c1ncn[nH]1 (centres undefined)	-10	12%	-9
16	CCOC(=O)C1=NN(C(=O)c2ccc(C)cc2)C(O)(c2ccc(Cl)cc2)C1 (centres undefined)	-1	-9%	2
17	O=c1oc2cc([N+](=O)[O-])ccc2nc1/C=C(\O)c1cccc(Br)c1	-6	-11%[15.4 µM]	7
18	C=CCNC(=S)NNC(=O)c1cc(Cl)ccc1OC	1	10%[15.4 µM]	0
19	CCC(C)N(C)C1CCN(C(=S)Nc2ccc(OC)cc2)CC1 (centres undefined)	-2	-2%[15.4 µM]	-2
20	CCOc1ccccc1C1CC(c2ccccc2)Nc2nc(N)nn21 (centres undefined)	0	-28%	3

#	D2 ag	D2 potentiator	gsp antag
11	3.9	-7	9%
12	-5.6	-4	.
13	-1.0	-5	-1%
14	-6.3	1	2%
15	-3.5	-23	12%
16	-4.4	-14	-11%
17	3.1	2	6%
18	-4.4	-13	-1%
19	-4.3	-8	-1%
20	2.2	0	-2%

Additional results:
#	canonical_smiles	Six1-Eya2 blk	gsp agonist	CtBP-E1A blk
21	O=C(NCc1ccncc1)C1CCCN1S(=O)(=O)c1ccc(Cl)cc1 (centres undefined)	10	11%[15.4 µM]	8
22	CCC1CCCCN1C(=O)Nc1cc(Cl)ccc1OC (centres undefined)	3	6%	0
23	COc1cc(OC)c(N(C)S(=O)(=O)c2cccc(C(=O)NC(C)C3CC4CCC3C4)c2)cc1Cl (centres undefined)	0	1%[15.4 µM]	7
24	COc1ccc(OCCNS(=O)(=O)c2ccccc2)cc1	-2	32%	-3
25	CCc1nnc(NC(=O)c2cccc(S(=O)(=O)N3CCCCC3)c2)s1	-1	-5%	4
26	CCCCNC(=O)c1ccccc1NC(=O)c1ccc2c(c1)OCO2	27	10%	.
27	COc1nc(/C=C/N(C)C)c([N+](=O)[O-])c(OC)n1	-9	-1%	6
28	Cc1ccc(S(=O)(=O)N2[C@@H](c3cccc(Cl)c3)C(C(=O)O)=CC[C@H]2c2ccc(Cl)cc2)cc1	-2	-2%	.
29	CCCc1n(CC(O)COC2CCCCC2)c2ccccc2[n+]1C (centres undefined)	-15	10%	-9
30	COC(CNC(=O)c1ccc(N2CCC3(CC2)OCCO3)c([N+](=O)[O-])c1)OC	0	24%	6

#	D2 ag	D2 potentiator	gsp antag
21	-5.9	-3	1%
22	-1.7	-1	5%
23	-2.0	-3	-18%
24	-4.7	-1	5%[15.4 µM]
25	-1.0	-3	-25%
26	0.1	-7	-11%
27	-3.3	-7	2%
28	1.5	-2	-11%
29	5.6	-9	6%
30	4.9	-7	1%

Further structures
#	canonical_smiles	Six1-Eya2 blk	gsp agonist	CtBP-E1A blk
31	Cc1ccc(NC(=S)N/N=C2/CCCCc3ccccc32)cc1	-21	-15%	?
32	Cc1ccc(-n2ncc3c(=O)n(CC(=O)N4CCCCCC4)cnc32)cc1	-3	0%	4
33	CCN(CC)C(=O)C1=C(C)N(Cc2ccc(OC)cc2)C(=O)C(CC(=O)NCCCCc2ccccc2)C1 (centres undefined)	8	-65%	9
34	O=C1Nc2ccccc2S/C1=C/c1cccs1	3	-6%	0
35	O=C(CSc1n[nH]c(-c2ccco2)n1)Nc1sc2c(c1C(=O)Nc1ccccc1)CCCC2	-12	7%	-15
36	CCNC(=O)Nc1ccccc1C(=O)OC	4	23%	5
37	Cc1cc(C)nc(-n2nc(C)cc2NC(=O)CNCc2ccccc2)n1	13	-41%[inhibitor]	-1
38	O=S(=O)(c1ccccc1)N1CCN(CCOc2ccc(F)cc2)CC1	1	-42%[inhibitor]	0
39	CCOC(=O)c1c(NC(=O)c2ccccc2Cl)sc2c1CCc1ccccc1-2	65	23%[15.4 µM]	35
40	COc1ccc(Nc2nc(-c3ccccc3)c(C(=O)Nc3cccnc3)s2)cc1	-3	-7%	10

#	D2 ag	D2 potentiator	gsp antag
31	-2.9	-32	?
32	-1.9	11	-3%
33	-7.7	4	.
34	1.2	6	-3%
35	0.2	5	-2%
36	-0.5	-5	10%
37	1.3	-1	-4%
38	-1.2	-14	.
39	-5.9	-8	?
40	0.0	-20	-17%

Continuation:
#	canonical_smiles	Six1-Eya2 blk	gsp agonist	CtBP-E1A blk
41	COc1ccc(Cl)cc1NC(=O)CN(C)C(=O)CCC(=O)c1cc(C)sc1C	0	-15%[15.4 µM]	-19
42	Cc1ccc2nc(Cl)c(C3CC(c4cccs4)=NN3C(=O)CCC(=O)O)cc2c1 (centres undefined)	-4	-1%[15.4 µM]	0
43	O=C(CSc1nncs1)Nc1nnc(-c2ccccc2)o1	?	-35%[inhibitor]	-22
44	CCOc1cc2[nH]c(=O)n(CCCN3CCN(c4ccc(OC)cc4)CC3)c(=O)c2cc1OCC	3	-3%[15.4 µM]	-1
45	CCc1nnc(NC(=O)Nc2ccc(OC)cc2)s1	1	0%	8
46	COc1ccccc1N1C(=O)C2CC=CC(C)C2C1=O (centres undefined)	8	-9%	2
47	CCCN(CC(=O)Nc1ccccc1C)C(=O)c1ccc2c(c1)S(=O)(=O)N=C1CCCCCN12	0	?	.
48	O=C(NCc1ccc2c(c1)OCO2)c1ccc(=O)[nH]c1	-2	22%	6
49	O=C(O)c1ccc(NC(=O)c2cccc(NC(=O)c3cccs3)c2)cc1	-19	-2%[15.4 µM]	-10
50	COc1cc(C(=O)Nc2cc(C(F)(F)F)ccc2N2CCOCC2)ccc1OCC(=O)N1CCOCC1	0	-10%	2

#	D2 ag	D2 potentiator	gsp antag
41	-5.6	-13	-19%
42	-5.0	-2	-17%
43	-0.5	-5	7%
44	-3.4	-6	2%
45	1.6	1	1%
46	-1.2	-13	-3%
47	-2.4	1	2%
48	-1.0	-5	9%
49	2.9	-5	7%
50	-7.5	-17	-5%

(continued)
#	canonical_smiles	Six1-Eya2 blk	gsp agonist	CtBP-E1A blk
51	COc1ccc(C)cc1NCC(=O)Nc1ccc(C(C)(C)C)cc1	-18	15%	-21
52	Cc1c(C2N3CC4(C)CN2CC(C)(C3)C4=O)c2ccccc2n1C (centres undefined)	2	0%	2
53	CCOC(=O)/C=c1\s/c(=C\c2ccc3c(c2)OCCO3)c(=O)n1CC(=O)NCC1CCCO1 (centres undefined)	6	14%	11
54	Fc1ccc(/C=N/Nc2nnnn2-c2ccccc2)cc1	-1	3%[15.4 µM]	1
55	Cc1cc2c(cc1S(=O)(=O)CCC(=O)N(C)Cc1ccccc1)OCC(=O)N2	-2	?	-5
56	COc1ccc(-c2nc(CN3CCC(c4ccccc4)CC3)c(C)o2)cc1OC	-10	11%	-21
57	COc1ccc(-c2cc(C(=O)OCC(=O)NC3CC3)c3ccccc3n2)cc1OC	-7	25%	5
58	COc1ccc2ccc(OCC(=O)N3c4ccccc4NC(=O)CC3C)cc2c1 (centres undefined)	21	?	0
59	CC(=O)c1cccc(N(CC(=O)NC2CCCCC2)C(=O)CCC(=O)Nc2nc(C)cs2)c1	-6	-2%	2
60	CCCCOC(=O)n1c(=S)oc2cc(Cl)ccc21	?	2%	-1
61	CCN(C(=O)c1ccnc(C(C)(C)C)c1)c1ccccc1	-5	7%	-4

#	D2 ag	D2 potentiator	gsp antag
51	1.4	-7	-8%
52	-1.0	-11	5%
53	-1.6	-8	5%
54	-2.8	-15	1%
55	-4.9	-6	8%
56	2.7	-15	4%
57	-1.3	9	-18%
58	2.0	-1	-29%
59	-1.6	-10	-2%
60	-3.9	-17	?
61	1.6	-1	-20%
